From PubChem
H5N1 antiviral: antiviral screen in MDCK cells, H5N1 avian flu. cytopathic effect, luminescence, 72 h; hits give high values; no value below 0 was filed and about half of the inactive calls have no number; reference of the scale not given here. inhibition, % at 50 µM. hit rate 0.07% among 96,000. AID 740; in the data active = inhibition above about 25%
Active calls of the source: *; i = inactive. The list is partial (hit frequency here may not be typical).

SMILES	H5N1 antiviral
O=C(OCc1nnc(-c2ccccc2)o1)C1=COCCO1	i
O=C(NCc1cccc(Cl)c1)c1cnccn1	0.2
CC(=O)N1N=C(c2cccc([N+](=O)[O-])c2)OC1c1ccccc1Cl (stereo unspecified)	i
Cc1ccc2nc(NC(=O)C3CCN(S(=O)(=O)c4ccc5c(c4)oc(=O)n5C)CC3)sc2c1	0.3
Cc1ccc(S(=O)(=O)NCc2ccc(C(=O)N(C)CCC#N)cc2)cc1	i
COc1ccccc1-n1c(C)nnc1SCC(=O)Nc1cccc(C(C)=O)c1	0.3
O=C1OC(Nc2ccccn2)c2ccccc21 (stereo unspecified)	i
COc1cc(/C=C2\SC(=S)N(Nc3ncc(C(F)(F)F)cc3Cl)C2=O)ccc1O	i
COC(=O)c1cccc(N(C(=O)c2cnccn2)C(C(=O)NCc2ccccc2)c2ccco2)c1 (stereo unspecified)	i
C=CCCC(=O)Nc1ccc(COC(=O)N2CCOCC2)cc1	0.2
Cc1ccc2c(c1)C(c1ccccc1)NCC(=O)N2 (stereo unspecified)	0.1
c1ccc2c(CSc3nnc(-c4ccncc4)o3)cccc2c1	1.8
CCOC(=O)N1CCN(c2nc(-c3ccc(OC)cc3)no2)CC1	i
O=C(Cn1cnc([N+](=O)[O-])n1)N/N=C/c1ccccc1O	5.1
Oc1ccc(/C=N/NC(=S)NCc2ccco2)cc1	i
O=C1c2ccccc2C(O)N1c1cccnc1 (stereo unspecified)	1.9
CCN(CC)c1ccc(N2C(=O)c3ccccc3C2=O)cc1	i
COc1ccc(C)cc1NC(=O)CSc1nnc(-c2ccc(C)cc2)o1	0.1
Cn1c(NC(=O)c2ccc(Cl)cc2Cl)cc(=O)n(C)c1=O	i
CC(Sc1ccccc1)C(=O)Nc1ccc(N2CCOCC2)cc1 (stereo unspecified)	0.1
CCOC(=O)CSc1nnc(CSc2nc(C)cc(C)n2)n1Cc1ccco1	0.7
O=C(Cn1c(=O)sc2ccccc21)NCCOc1ccccc1F	0.8
CC1(C)CC(=O)C2=C(C1)OC(N)=C(C#N)C2C1CC=CCC1 (stereo unspecified)	i
O=C1c2ccccc2-c2cccc(NS(=O)(=O)c3ccc(C(F)(F)F)cc3)c21	i
Cc1ccc(NC(=O)c2c(Cl)n(C)c3ccccc23)cc1	i

Reformatted: entries from further up
compound | H5N1 antiviral
O=C(OCc1nnc(-c2ccccc2)o1)C1=COCCO1 | i
O=C1c2ccccc2C(O)N1c1cccnc1 (stereo unspecified) | 1.9
CC(=O)N1N=C(c2cccc([N+](=O)[O-])c2)OC1c1ccccc1Cl (stereo unspecified) | i
COc1ccc(C)cc1NC(=O)CSc1nnc(-c2ccc(C)cc2)o1 | 0.1
CCN(CC)c1ccc(N2C(=O)c3ccccc3C2=O)cc1 | i
CCOC(=O)N1CCN(c2nc(-c3ccc(OC)cc3)no2)CC1 | i

Later entries
SMILES	H5N1 antiviral
c1ccc2c(c1)ncn2Cc1nnc2sc(-c3ccncc3)nn12	4.3
Cc1ccc(N2CC(C(=O)N3CCN(C(=O)c4ccco4)CC3)CC2=O)cc1 (stereo unspecified)	i
Cn1c(CCNC(=O)c2ccco2)nc2cc(NC(=O)c3ccco3)ccc21	i
CCOc1ccccc1NC(=O)CN(c1ccc(C)cc1)S(=O)(=O)c1c(C)noc1C	0.2
O=C(Nc1cccc(Cl)c1)c1cnn2cccnc12	0.8
COc1cc(C2SCC(=O)N2CCCN(C)C)cc(OC)c1OC (stereo unspecified)	i
O=C1c2ccccc2C(=O)N1c1ccc(Cl)cc1	0.9
Cc1ccc2cc(COC(=O)C3CCCO3)c(=O)[nH]c2c1 (stereo unspecified)	i
O=C(Cc1n[nH]c(=O)[nH]c1=O)N/N=C/c1cccc(O)c1	0.1
CC1CCCC(C)N1CCNC(=O)CCn1nc(-c2ccccc2)ccc1=O (stereo unspecified)	0.3
O=C(Nc1ccc(N2CCCC(O)C2)cc1)c1snc2c(=O)[nH]cnc12 (stereo unspecified)	0.4
Cc1ccc(Cn2c(CN3CC(C)OC(C)C3)nc3c2c(=O)[nH]c(=O)n3C)cc1 (stereo unspecified)	1.8
COc1cc(C2SCC(=O)Nc3c2c(C)nn3-c2ccccc2)cc(OC)c1OC (stereo unspecified)	i
COc1ccc(OC)c(NC(=O)Cn2cccc2)c1	i
COC(=O)Nc1nc2c(s1)CCCC2	0.1
COc1cc(C(C(=O)NC2CCCCC2)N(Cc2cccs2)C(=O)Cc2c[nH]c3ccccc23)cc(OC)c1OC (stereo unspecified)	i
O=C(O)c1cc(S(=O)(=O)N2CCCCCC2)ccc1Cl	1.5
C/C(=N\NC(=O)c1csc2ccccc12)c1ccc(O)cc1	5.0
CCCCn1c(SCC(=O)NCc2cccs2)nc2c1c(=O)n(C)c(=O)n2C	1.3
Cc1ccc(C2=CC(c3cccs3)n3nnnc3N2)cc1 (stereo unspecified)	0.9
CCOC(=O)c1ccc(Oc2nc(SC)nc(N(C)C)n2)cc1	0.1
COc1cc(C(=S)N2CCCCC2)ccc1OCC(=O)N1CCCC1	i
COC(=O)c1ccc(Oc2c(C)oc3c(CN4CCN(C)CC4)c(O)ccc3c2=O)cc1	i
C=CCN1C(=O)C(C)(C)Nc2ccccc21	0.4
Cc1cc(C(=O)OCC(=O)Nc2ccc(F)c(F)c2)c(C)o1	i
More entries
SMILES	H5N1 antiviral
COc1cccc2cc(NC(=O)C3CCCCC3)c(=O)oc12	i
COc1ccccc1N=c1oc2cc(O)ccc2cc1C(N)=O	i
O=C1CC2(CON=C2c2ccc(F)cc2)C(=O)N1c1ccc(F)cc1 (stereo unspecified)	i
COc1ccc(-c2noc(CSc3nc4ccccc4c(=O)n3-c3ccccc3)n2)cc1	i
COc1ccc(-n2nc3cc(C)c(N)c(Br)c3n2)cc1	i
Cc1ccccc1CN(c1ccc(C(=O)Nc2ccccc2C(=O)NCc2ccco2)cc1)S(C)(=O)=O	i
Cc1ccc(CNC(=O)C(Cc2ccccc2)NS(=O)(=O)c2ccc3c(c2)CCC(=O)N3)cc1 (stereo unspecified)	i
COc1cccc(-c2nc(CS(=O)(=O)CC(=O)N3CCc4ccccc4C3)c(C)o2)c1	2.0
CC(C)CNS(=O)(=O)c1ccc(CCC(=O)Nc2cc(Cl)ccc2Oc2ccccc2)cc1	i
COc1cccc(NC(=O)C2CC(=O)n3cnnc3S2)c1 (stereo unspecified)	i
COc1cc(CN2CCC(C(=O)NC3CCCC3)CC2)cc(OC)c1O	i
COc1ccc(C2=Nn3c(nnc3-c3ccccn3)SC2)cc1OC	5.2
CCOC(=O)C1CCCN(c2nc(C)nc3c2oc2ccccc23)C1 (stereo unspecified)	3.0
O=C1CCCC2=C1C(c1ccsc1)CC(=O)N2c1nnc(SCc2ccccc2)s1 (stereo unspecified)	i
CC(C)C(NS(=O)(=O)c1cccs1)C(=O)N(C)Cc1ccccc1 (stereo unspecified)	0.2
Cc1ccccc1-n1c(C)nc2ccccc21	2.1
Cn1c2c(c(=O)n(C)c1=O)C(NC(=O)c1ccco1)(C(F)(F)F)C(=O)N2 (stereo unspecified)	0.1
NC(=O)CC1(CC(=O)O)CCCCC1	i
CC(=O)Nc1ccc(Oc2nc(C)cc(C)n2)cc1	0.3
O=C(CSCc1ccc(F)cc1)N1CCOCC1	0.3
COc1ccc(Nc2nc(NC(C)(C)C)nc(N3CCCC3)n2)c(OC)c1	i
N=C1C(c2nc3ccccc3[nH]2)=C(O)CN1c1ccccc1	0.4
O=c1c2cc3c(=O)n(CC4CCCO4)c(=O)c3cc2c(=O)n1CC1CCCO1 (stereo unspecified)	i
C/C(=C(\C#N)C(=O)NCc1ccccc1)N(C)C	i
CC(=O)c1cccc(N(C(=O)Cn2nnc3ccccc32)C(C(=O)NC2CCCCC2)c2cn(C)nc2C)c1 (stereo unspecified)	0.5
(continued)
SMILES	H5N1 antiviral
Cc1nnc2ccc(N3CCC4(CC3)OCCO4)nn12	0.9
N#CC1(c2ccccc2)CCCN1C(=O)c1ccco1 (stereo unspecified)	i
O=C(CSc1nc2ccccc2c(=O)[nH]1)Nc1ccc(S(=O)(=O)N2CCCC2)cc1	0.5
O=C(Cc1c(O)c2ccccc2[nH]c1=O)NCc1ccccc1F	i
Cc1cccc(NC(=O)CSc2nc(-c3ccccc3)c(C#N)c(=O)[nH]2)c1C	i
CCCCN1C(=O)CC(C(=O)O)C1c1ccc(OC)cc1 (stereo unspecified)	1.1
Cn1c(N)c(C(=O)COC(=O)c2ccc3c(c2)OCCO3)c(=O)n(C)c1=O	i
COC(=O)c1nc2cc3c(cc2c(C)c1C(=O)OC)OCO3	0.5
COc1ccc(S(=O)(=O)Nc2ccc(S(=O)(=O)N3CCOCC3)cc2)cc1C	3.7
COc1ccc(C(=O)N=c2nc3ccccn3s2)cc1	i
COC(=O)CC1SC(=O)NC1=Nc1ccc(O)cc1 (stereo unspecified)	i
CCCCCC(=O)N/N=C(\C)c1ccccn1	2.7
Cc1cc(NC(=O)c2c(Cl)c(C)nn2C)no1	0.5
O=c1oc2ccccc2cc1-c1nnc(NCc2ccco2)s1	1.6
CCOC(=O)C1=C(OCc2ccc(Cl)cc2)C2C=C(C)C=CC2N=C1 (stereo unspecified)	1.1
CC12CC(NC(=O)N1c1cccc(C(=O)N3CCN(c4ccccn4)CC3)c1)c1ccccc1O2 (stereo unspecified)	2.0
CCOc1ccccc1N(C(=O)c1snc(C(N)=O)c1N)C(C(=O)NCCC(C)C)c1ccco1 (stereo unspecified)	0.8
COc1ccccc1NC(=O)c1nc[nH]c1C(=O)Nc1ccccc1OC	i
O=C1OC(N2CCN(c3ccccn3)CC2)c2ccccc21 (stereo unspecified)	i
COCCNC(=O)c1onc(CSc2ccc(F)c(F)c2)c1C(=O)O	i
COc1cc(CCC(=O)Nc2cc(Cl)ccc2N2CCN(C)CC2)cc(OC)c1OC	i
O=C(c1ccccc1Nc1ccc(SC(F)F)cc1)N1CCCCCC1	2.1
CC(C(=O)NCC1(c2ccccc2)CCCC1)N1CCCC1 (stereo unspecified)	1.1
O=C1OC(N2CCN(C/C=C/c3ccccc3)CC2)c2ccccc21 (stereo unspecified)	0.1
CC(C)C(=O)NC(Nc1cccc2cccnc12)C(Cl)(Cl)Cl (stereo unspecified)	0.3
Going on with the list.
SMILES	H5N1 antiviral
COc1ccc(C2C3=C(CC(C)(C)CC3=O)Oc3ncn(CCCn4ccnc4)c(=N)c32)cc1 (stereo unspecified)	i
CCn1c(=O)cc(N2CCC3(CC2)OCCO3)[nH]c1=O	0.5
Cc1cccc(NC(=O)C(C)Oc2ccccc2C)n1 (stereo unspecified)	i
O=C(O)C1[C@H]2C(=O)N(C3CCCC3)C[C@]23C=C[C@H]1O3 (stereo partly specified)	0.2
COc1ccc(C2C3=C(CCCC3=O)Nc3nc(SCc4ccccc4)nn32)cc1OC (stereo unspecified)	i
Cc1ccc(-c2nnn(CC(=O)Nc3ccc4nn(-c5ccccc5)nc4c3)n2)o1	i
COc1ccc(NC(=O)C2CCCN(S(=O)(=O)c3c(C)[nH]c(=O)[nH]c3=O)C2)cc1 (stereo unspecified)	i

Sorted by formula weight (rising): some entries from above.
SMILES	H5N1 antiviral
Cc1cccc(NC(=O)C(C)Oc2ccccc2C)n1 (stereo unspecified)	i
O=C(Cc1c(O)c2ccccc2[nH]c1=O)NCc1ccccc1F	i
COc1ccc(C2=Nn3c(nnc3-c3ccccn3)SC2)cc1OC	5.2
O=C(Nc1ccc(N2CCCC(O)C2)cc1)c1snc2c(=O)[nH]cnc12 (stereo unspecified)	0.4
